Cruzain inh noDet: qHTS Assay for Promiscuous and Specific Inhibitors of Cruzain (without detergent). purified cruzain, Z-FR-AMC fluorescence, no detergent. Potency, µM, inactives show max response, negative = inhibition, actives largely listed as inhibitors. actives 2.3% (n = 200,000). AID 1476, 2009;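 further: plate controls were enzyme without inhibitor for no effect and buffer without enzyme for full effect; nearly all actives have a fitted effect of over 40% in size; top concentration of the series not given in the record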
Target sequence (P25779 123-467 limits assumed): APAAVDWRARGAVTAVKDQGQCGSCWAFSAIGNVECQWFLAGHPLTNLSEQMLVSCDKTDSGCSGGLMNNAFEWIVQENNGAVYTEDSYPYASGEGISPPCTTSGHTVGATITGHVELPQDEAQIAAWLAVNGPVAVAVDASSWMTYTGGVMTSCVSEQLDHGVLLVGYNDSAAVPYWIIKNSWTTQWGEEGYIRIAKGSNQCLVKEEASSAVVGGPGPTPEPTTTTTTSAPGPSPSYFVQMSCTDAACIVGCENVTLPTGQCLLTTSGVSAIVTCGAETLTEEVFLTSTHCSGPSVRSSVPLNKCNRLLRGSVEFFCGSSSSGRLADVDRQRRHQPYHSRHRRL
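Detergent-free condition (0.00005% Triton X-100) in acetate buffer pH 5.5 with DTT. 1.5 nM enzyme and compound were pre-mixed 15 min, then 2 uM Z-FR-AMC substrate added; reaction progress from fluorescence change between first and third reads (60 s).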
2A StopGo: High Throughput Screening for Foot and Mouth Disease Virus Antivirals. actives 1.2% (n = 410,000). human cells with a luciferase reporter of 2A StopGo recoding; control for the full effect not named in the record. Potency, µM (top dose mostly 57.9 µM), for inactives: at the highest dose signal change, negative = less light. AID 1159524, 2015; active = well fitted falling curve with a large enough effect; inconclusive = small, poorly fitted or top-dose-only effect; inactive = no such curve, though single readings can be large or run the other way; tested in HEK293T cells; further: nearly all actives have a fitted effect of over 45% in size; luciferase light after 4 h
Cruzain inh Det: qHTS Assay for Promiscuous and Specific Inhibitors of Cruzain (with detergent). Cruzipain (Trypanosoma cruzi), P25779. purified cruzain, Z-FR-AMC fluorescence, 0.01% Triton. Potency, µM, without a hit: max response, negative = inhibition, most hits filed as inhibitors. actives 0.43% (n = 200,000). AID 1478, 2009;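 further: plate controls were neutral wells for no effect and buffer without enzyme for full effect; nearly all actives have a fitted effect of over 40% in size; top concentration of the series not given in the record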
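Cysteine protease activity tested under reducing, mildly acidic conditions (100 mM sodium acetate pH 5.5, 5 mM DTT) plus 0.01% Triton X-100. Cruzain 1.5 nM; substrate Z-FR-AMC 2 uM; 15 min compound preincubation at room temperature.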
* hit, by the source's call; ? = inconclusive; & = joins results of further samples; [ ] = dose if it differs, or a comment. Unless noted, the call rests on the fitted dose curve; in most records, active means well fitted curve in the direction sought with a large enough effect; inconclusive means small, poorly fitted or top-dose-only effect, or another doubt; inactive means no such curve, though single readings can be large; an effect the other way counts as inactive or inconclusive. Unless noted, on the % scale 0 is the no-effect control and ±100 the full control effect; potency means the concentration at half of the fitted maximal effect. These rows are one share of the data; count on the stated rates, not on these rows.

Sequence of screens: Cruzain inh noDet	2A StopGo	Cruzain inh Det
O=C(c1cccc(F)c1)N1CCC[C@@]2(CCN(Cc3ccccc3)C2)C1
 : -11%	-7%	2.9%
COCC(=O)N1CCC2(CCCN(C(=O)Nc3cccc(C#N)c3)C2)CC1
 : -4%	-8%	1.8%
CN(Cc1ccco1)c1cc(-c2cccnc2)ncn1
 : -5%	-5%	0.8%
COc1ccc(-c2nc3cnc(N4CCNCC4)nc3n(Cc3cccs3)c2=O)cc1
 : -3%	2%	-8.3%
COc1cc(C=O)c([N+](=O)[O-])cc1OC
 : 1%	-12%	-8.3%
Cc1noc(C)c1C(=O)N1CCC2(CCN(Cc3nccs3)CC2)CC1
 : 3%	-7%	4.0%
CCN1C[C@]2(C)CC[C@H](OC)[C@]34C5C[C@@H]6CC[C@@](O)(C5C(=O)O6)C(C13)[C@@H](OC(=O)c1ccccc1)C24
 : -6%	4%	1.2%
Cn1cccc1C(=O)N1CCC2(CC1)CN(c1ccncc1)C2
 : -12%	-4%	2.3%
C/C=C1\C2C=C(C)CC1(N)c1ccc(=O)[nH]c1C2 (stereo not drawn)
 : 3%	6%[97.4 µM]	-0.7%
FC(F)(F)c1ccccc1-c1ccc2ncnc(N3CCOCC3)c2c1
 : 12%	-47%	-5.9%
CCCC[C@H]1C(=O)O[C@H](C)[C@H](NC(=O)c2cccc(NC=O)c2OC)C(=O)O[C@@H](C)[C@@H]1OC(=O)CC(C)C
 : ?	0%	-1.6%
C[C@H](C[C@H](N)C(=O)O)C(=O)O
 : 7%	-19%	-1.9%
CS(=O)(=O)N1CCC2(CCCN(C(=O)Nc3cccc(F)c3)C2)CC1
 : -2%	2%	2.6%
O=C(c1ccco1)N1CCC2(CCCN(c3cccc(-c4ccccc4)c3)C2)CC1
 : 3%	-9%	-3.5%
COc1c(O)cccc1O
 : 0%	-5%	4.3%
O=C(c1csnn1)N1CCC2(CC1)CN(C(c1ccccc1)c1ccccc1)C2
 : 8%	-16%	-0.8%
O=c1c(-c2ccccc2)nc2cnc(Oc3ccccc3)nc2n1Cc1cccs1
 : ?	-18%	1.2%
N#Cc1cccc(NC(=O)N2CC[C@@]3(CCCN(C(=O)c4cccc(F)c4)C3)C2)c1
 : 1%	-7%	2.6%
CC1(C)OC2CC3C4CC(F)C5=CC(=O)CC[C@@]5(C)C4C(O)C[C@@]3(C)[C@]2(C(=O)CO)O1 (stereo partly drawn)
 : 6%	7%	1.4%
Cc1noc(C)c1-c1nccc(N(C)Cc2ccco2)n1
 : 8%	-12%	-3.9%
COc1cccc(-c2nc(N(C)C)c3ccccc3n2)c1
 : -5%	14%	-2.5%
c1csc(CNc2nc(-c3ccoc3)nc3ccccc23)c1
 : ?	-5%	0.7%
COc1ccccc1CNc1ccnc(-c2ccccc2Cl)n1
 : 6%	-11%	0.5%
O=C1CCO1
 : 6%&10%	-15%	6.7%&-3.5%
N#Cc1cccc(-c2cncnc2-n2ccnc2)c1
 : -5%	-14%	6.7%
COc1ncc2nc(-c3cn(C)c4ccccc34)c(=O)n(Cc3ccc(F)cc3)c2n1
 : 7%	5%	-2.1%
CC(=O)NCC(=O)N[C@H](CCC(=O)O)C(=O)O
 : -6%	-15%	0.6%
COc1ccc2[nH]cc(CCNc3ccnc(-c4cccc(NS(C)(=O)=O)c4)n3)c2c1
 : 0%	-27%	-4.2%
COCCn1c(=O)c(-c2cc(F)cc(F)c2)nc2cnc(Oc3cccc(Cl)c3)nc21
 : 6%	-17%	0.7%
Cc1nc2cnc(N(C)C)nc2n(C)c1=O
 : 2%	-1%	-2.0%
COc1ccc(C(=O)N2CCC3(CCCN(c4ccccc4)C3)CC2)cc1
 : 1%	-12%	-4.3%
O=C(c1cnccn1)N1CCC2(CCN(Cc3ccncc3)CC2)CC1
 : -6%	-1%	-1.6%
COc1ccc(Oc2ncc3nc(C)c(=O)n(C)c3n2)cc1
 : -8%	39%[activator]	-2.0%
COc1cccc(-c2cncnc2-n2ccnc2)c1
 : -1%	39%[activator]	2.2%
CC(C)=CCc1c2c(c(O)c3c(=O)c(O)c(-c4ccccc4)oc13)C=CC(C)(C)O2
 : -5%	-8%	0.8%
Cn1cc(-c2nc3cncnc3n(Cc3ccc(F)cc3)c2=O)c2ccccc21
 : 4%	-13%	3.9%
COc1ccc(NC(=O)N2CC3(CCN(C(=O)c4cccc(F)c4)CC3)C2)cc1
 : -3%	1%	0.0%
CC(C)CN1CCC2(CC1)CCN(S(=O)(=O)c1ccccc1)CC2
 : -13%	-16%	1.9%
COc1ccc(C(=O)N2CCC3(CCN(CC(C)C)CC3)CC2)cc1
 : 14%	-10%	-0.2%
COc1ccccc1CNc1ccnc(-c2ccc(C(=O)N(C)C)cc2)n1
 : 5%	1%	-3.8%
COCCNc1nc(-c2ccccc2CN(C)C)nc2ccccc12
 : -3%	-6%	2.1%
COc1ccc(CNc2cc(-c3ccccc3Cl)ncn2)c(OC)c1
 : 1%	0%	-4.1%
CN(C)CCc1c[nH]c2ccc(CS(=O)(=O)N3CCCC3)cc12
 : -10%	-10%	3.3%
COc1ccc(NC(=O)N2CCCC3(CCN(C(=O)c4c(C)noc4C)CC3)C2)cc1
 : 0%	4%	-1.7%
COc1ccc2c(c1)OCC(Cc1ccc(O)c(OC)c1)C2=O (stereo not drawn)
 : 8%	41%[activator]	-2.5%
CNc1nc(-c2ccccc2C(F)(F)F)nc2ccccc12
 : 6%	3%	1.6%
c1ncc(-c2ccoc2)c(NC2CC2)n1
 : -6%	-19%	1.7%
CCCCCCCCCC(=O)OCC(CO)OC(=O)CCCCCCCCC (stereo not drawn)
 : -1%	0%[6.7 µM]	-7.2%
COc1ccc(NC(=O)N2CCCC3(CCNCC3)C2)cc1
 : -8%	5%	2.8%
CCCCCN=c1ccn(Cc2ccccc2)c2ccccc12
 : -4%	40µM*	-2.6%
Cc1ccccc1-c1cc(NCc2ccccc2)ncn1
 : 13%	-2%	-2.9%
CN(C)c1ncc2nc(-c3cccs3)c(=O)n(C)c2n1
 : 3%	27%	0.5%
COc1ccc(-c2nc3cnc(N(C)C)nc3n(-c3ccccc3)c2=O)cc1
 : -1%	14%	0.5%
CN1CCN(c2ncnc3ccc(-c4ccccc4C(F)(F)F)cc23)CC1
 : 3%	-39%	-1.8%
CC1(C)C2(Cl)C(Cl)C(Cl)C(Cl)(C(Cl)Cl)C1(Cl)C2Cl (stereo not drawn)
 : -2%	-4%	1.8%
N#CCCn1c(=O)c(-c2ccc(Cl)cc2)nc2cnc(N3CCNCC3)nc21
 : -13%	-4%	-17%
CC(=O)N1CCC2(CCN(Cc3ccncc3)CC2)CC1
 : -4%	-5%	6.0%
Cc1ccccc1-c1nc(NCc2cccs2)c2ccccc2n1
 : ?	-23%	-3.2%
COc1ccc(-n2c(=O)c(CCc3ccccc3)nc3cnc(N4CCNCC4)nc32)cc1
 : -11%	-8%	-6.8%
CC1(C)C(O)CC(O)[C@]2(C)C1CC(=O)[C@]1(C)C2CC[C@@]2(C)C(c3ccoc3)OC(=O)C3OC321 (stereo partly drawn)
 : 3%	-1%	0.6%

Next records.
Sequence of screens: Cruzain inh noDet	2A StopGo	Cruzain inh Det
COc1cc(-c2coc3cc(O[C@H]4OC(CO)C(O)C(O)C4O)c(OC)c(O)c3c2=O)cc(O)c1OC (stereo partly drawn)
 : 4%	35%[activator]	2.7%
CCCCCCCC/C=C\C/C=C\C/C=C\CCCC(=O)O
 : -5%	-3%[6.7 µM]	1.9%
O=C(Oc1ccccc1)N1CCC2(CCCN(c3cccc(-c4ccccc4)c3)C2)CC1
 : -29%	-2%	-5.9%
COCCn1c(=O)c(-c2ccc(OC)cc2)nc2cnc(Nc3ccccc3)nc21
 : -2%	0%	2.0%
CN(C)Cc1ccccc1-c1ccc2ncnc(NCc3cccs3)c2c1
 : -3%	-28%	-4.7%
COc1ccccc1CNc1ccnc(-c2ccc3c(c2)OCO3)n1
 : -26%	15%	-9.1%
COc1cccc(-c2nccc(NCCc3c[nH]c4ccc(OC)cc34)n2)c1
 : -2%	-22%	-6.2%
COc1ccc(C(=O)N2CCC[C@@]3(CCN(Cc4ccccc4OC)C3)C2)cc1
 : -5%	-5%	3.1%
COc1ccccc1-c1ccc2ncnc(NCCNC(C)=O)c2c1
 : 5%	-14%	-1.9%
COc1cccc(Cn2c(=O)c(CCc3ccccc3)nc3cnc(N4CCOCC4)nc32)c1
 : -6%	-16%	-4.0%
O=C(c1ccco1)N1CCC[C@@]2(CCN(Cc3nccs3)C2)C1
 : 2%	-21%	-1.6%
O=C(Nc1cccc(F)c1)N1CC2(CCN(C(=O)c3cccc(F)c3)CC2)C1
 : -10%	-11%	-0.1%
NC1(C(=O)O)CCC1
 : 4%	0%	-1.4%
COCCn1c(=O)c(-c2ccc(OC)cc2)nc2cnc(OCc3ccccc3)nc21
 : 0%	-11%	-3.3%
OCC1OC(n2cnc3c(Cl)nc(Cl)nc32)C(O)C1O (stereo not drawn)
 : 0%	?	1.8%
COCCNc1ccnc(-c2c(C)noc2C)n1
 : -5%	4%	3.9%
O=C(c1ccco1)N1CCC2(CC1)CCN(c1ccncc1)CC2
 : 3%	-12%	-4.0%
CN(C)c1ccc(-c2ccc3ncnc(NCc4ccccc4)c3c2)cc1
 : 1%	10%	-6.0%
COc1ccccc1-c1cncnc1NCCNC(C)=O
 : -6%	-10%	3.8%
COc1ccc(Nc2ncc3nc(-c4cccs4)c(=O)n(Cc4cccc(OC)c4)c3n2)cc1
 : -10%	-15%	-0.3%
FC(F)(F)c1ccccc1-c1cncnc1NCCc1cnc[nH]1
 : 7%	-3%	4.3%
Cc1ccccc1-c1nccc(-n2ccnc2)n1
 : 2%	-10%	3.5%
COCCn1c(=O)c(CCc2ccccc2)nc2cnc(OCc3ccccc3)nc21
 : 12%	-4%	3.0%
CC(CCC(=O)O)C1CCC2C3CC[C@H]4CC(O)CC[C@@]4(C)C3CC[C@@]12C (stereo partly drawn)
 : 0%	-12%	-2.0%
COc1ccc(Oc2ncc3nc(C)c(=O)n(Cc4cccc(OC)c4)c3n2)cc1
 : ?	-11%	-4.8%
N#CCCn1c(=O)c(CCc2ccccc2)nc2cnc(Oc3cccc(Cl)c3)nc21
 : -2%	-29%	-2.6%
OCc1ccccc1O
 : 0%	-11%	3.5%
CC(=O)O.CC(=O)O.[Cd]
 : 7%	-18%	3.1%
CCS(=O)(=O)N1CCC[C@H]2CN3CCc4cc(OC)ccc4[C@@H]3C[C@@H]21
 : 8%	-7%&-11%	1.3%
COc1ccc2[nH]cc(CCNc3ncnc4ccc(-c5cccc(C#N)c5)cc34)c2c1
 : -21%	?	-0.8%
Cc1nc2[nH]c(=O)[nH]c(=O)c2[nH]1
 : -12%	-11%	9.6%
N#CCCn1c(=O)c(-c2ccccc2)nc2cnc(Oc3cccc(Cl)c3)nc21
 : -24%	-21%	-4.1%
COc1ccccc1CN1CCC2(CC1)CCN(C(=O)c1ccco1)CC2
 : 1%	-14%	2.4%
C[C@@]12CCC(Cl)C[C@H]1CCC1C2CC[C@]2(C)C(=O)CCC12 (stereo partly drawn)
 : -1%	3%	1.2%
CC1(C)C2C[C@@H](O)[C@]3(C)C(CC[C@@]4(C)[C@H](c5ccoc5)C[C@H]5O[C@]543)[C@@]2(C)[C@@H](O)C[C@H]1O (stereo partly drawn)
 : ?	0%	1.7%
CN(Cc1ccco1)c1ncnc2ccc(-c3ccccc3C(F)(F)F)cc12
 : 2%	-27%	-4.4%
O=C(c1cnccn1)N1CCC2(CCN(Cc3nccs3)CC2)CC1
 : 2%	-4%	-1.1%
S=c1ccss1
 : -12%	-8%	-2.0%
N#Cc1ccc(CN2CCCC3(CCN(C(=O)c4ccncc4)CC3)C2)cc1
 : 9%	-12%	-2.0%
